Screening results from PubChem.
TRPML1 blocker: inhibitors of human TRPML1 channel; activity change, negative = inhibition, % (concentration not given with the values); Q9GZU1; TRPML1-inducible cells, Ca2+ dye fluorescence, FDSS; hits give low values; inhibition of EC80 agonist-evoked calcium signal; 390,000 compounds, 0.02% hits; in the data active means activity change below about -50%; inconclusive means about -30% to -50%; inactive means above about -30%;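 further: stimulus is agonist 54-4 at its EC80 concentration; on the % scale 0 is the no-effect control and ±100 the full control effect; the text of the record puts the active cut at -80%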
Target sequence (Q9GZU1 whole entry, looked up): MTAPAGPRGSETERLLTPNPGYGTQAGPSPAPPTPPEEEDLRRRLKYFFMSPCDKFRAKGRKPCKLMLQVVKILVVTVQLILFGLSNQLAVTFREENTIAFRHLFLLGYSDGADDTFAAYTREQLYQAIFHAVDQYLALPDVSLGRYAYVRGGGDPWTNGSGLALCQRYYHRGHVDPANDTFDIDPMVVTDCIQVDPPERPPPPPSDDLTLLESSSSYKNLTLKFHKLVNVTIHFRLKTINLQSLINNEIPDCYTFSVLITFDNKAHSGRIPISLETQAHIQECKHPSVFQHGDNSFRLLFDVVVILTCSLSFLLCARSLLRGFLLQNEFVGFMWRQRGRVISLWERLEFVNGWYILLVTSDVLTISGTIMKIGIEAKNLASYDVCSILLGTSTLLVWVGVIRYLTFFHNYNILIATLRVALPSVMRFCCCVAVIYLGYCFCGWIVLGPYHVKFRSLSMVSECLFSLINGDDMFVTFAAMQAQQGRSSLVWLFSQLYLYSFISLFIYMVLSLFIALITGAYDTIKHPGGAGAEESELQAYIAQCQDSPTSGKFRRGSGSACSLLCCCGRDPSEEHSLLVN
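Tet-induced TRPML1-DL cells loaded with Ca8 no-wash calcium dye were read kinetically on FDSS. Compound addition was followed by EC80 agonist 54-4 (4 uM final); inhibition was read over 110 s.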
Menin MLL FP FL: inhibitors of human menin-MLL interaction, wild-type MLL peptide | Fluorescence polarization, fluorescein-MLL peptide displacement from menin | FP activity change, % at 61.4 µM | 290,000 tested, under 10 active; inconclusive = falling polarisation curve, or a change in total fluorescence; inactive = total fluorescence flat and polarisation flat or rising; no compound was filed as active; the % refers to the polarisation; negative = inhibition;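 further: % of control where 0% means no effect; inhibitors lower the polarisation; unlabelled MLL peptide was the positive control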
ClpP mod: qHTS Assay for Activators of ClpP; Potency, µM (highest dose often 57.5 µM), inactives show top-dose activity change, negative = active; 340,000 compounds, 1.9% hits; purified B. subtilis ClpP, FRET peptide cleavage, 20 min; AID 651965, 2013; ATP-dependent Clp protease proteolytic subunit (Bacillus subtilis (strain 168)), P80244; active = well fitted falling curve with a large enough effect; inconclusive = small, poorly fitted or top-dose-only effect; inactive = no such curve, though single readings can be large or run the other way; further: potency means the concentration at half of the fitted maximal effect; the source files actives as falling curves though it sought activators and does not explain the sign; nearly all actives have a fitted effect of over 65% in size; many hits overshoot -100%
Target sequence (P80244 whole entry, looked up): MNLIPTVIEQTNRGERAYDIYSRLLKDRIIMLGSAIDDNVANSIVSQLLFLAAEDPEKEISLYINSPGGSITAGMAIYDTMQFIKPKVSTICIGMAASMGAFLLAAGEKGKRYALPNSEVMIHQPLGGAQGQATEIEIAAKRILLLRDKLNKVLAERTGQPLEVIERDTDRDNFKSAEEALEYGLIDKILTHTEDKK
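FRET quenching reversal measured ClpP activation: 10 microg/mL B. subtilis ClpP at pH 8 with the FRET-FV decapeptide, read at 430 nm after 320 nm excitation. The 20-min minus 0-min signal was scaled between DMSO/no-enzyme wells and ADEP (5.8 microM final).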
gsp agonist: agonists of gsp mutant (McCune-Albright syndrome) | gsp mutant cells, cAMP HTRF, 30 min; control for the full effect not named in the record | 340,000 compounds, 0.13% hits | Potency, µM (doses to about 76.9 µM), for the others: at the highest dose activation (cAMP increase), hits mostly activators; active = well fitted activation curve with a large enough effect; inconclusive = small, poorly fitted or top-dose-only effect, or another doubt; inactive = no such curve, though single readings can be large or run the other way; cell line not stated here;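 further: phosphodiesterase inhibitor Ro 20-1724 added with compounds to block cAMP breakdown; potency means the concentration at half of the fitted maximal effect; nearly all actives have a fitted effect of over 60% in size; about a fifth of the inactives were tested at one dose only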
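Cells in DMEM/10% FBS with G418 were pretreated with compounds in DMSO plus […] (300 uM stock) for 30 min at 37C. cAMP was measured by HTRF (cAMP-d2 plus anti-cAMP antibody-K) after 30 min at room temperature.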
TRPML1 ag: activates the human TRPML1 channel. Q9GZU1. TRPML1-expressing cells, Ca2+ dye fluorescence, FDSS; host cell line not named in the record; reference of the full effect not given here. activation, % (no concentration beside the values). 410,000 compounds, 0.12% hits; in the data active = activation above about 50%; inconclusive = about 30% to 50%; inactive = below about 30%; further: 0% is about no effect; the text of the record puts the active cut at 80%
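Calcium fluorescence on an FDSS kinetic reader gave the read-out. Tet-induced TRPML1-DL cells were plated overnight, dye-loaded (Ca8 with quencher, 45-90 min, room temperature, dark), then read 110 s after compound addition, and again 110 s after 4uM final 54-4 (EC80).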
gsp antag: antagonists of gsp mutant (McCune-Albright syndrome); gsp-mutant cells, cAMP HTRF, 30 min; control for the full effect not named in the record; Potency, µM (top dose mostly 76.9 µM), inactives show at the highest dose activity change, negative = inhibition, actives largely listed as inhibitors; 340,000 compounds, 0.4% hits; active = falling curve of any shape with a large fitted effect; inconclusive = falling curve, mostly with a smaller effect; inactive = flat or rising curve; cell line not stated here;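 further: intracellular cAMP measured with PDE inhibitor Ro 20-1724 present during compound exposure; potency means the concentration at half of the fitted maximal effect; on the % scale 0 is the no-effect control and ±100 the full control effect; nearly all actives have a fitted effect of over 65% in size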
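Cells, 2000/well, grown 16–24 h in DMEM 10% FBS with 0.5 mg/ml G418, then compounds plus […] (300 uM addition stock), 30 min at 37C. cAMP read by HTRF (cAMP-d2 and anti-cAMP antibody-K in lysis buffer) after 30 min RT.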
* = called active by the depositor; & = joins results of further samples; [ ] = remark or other dose.

Results for O=[N+]([O-])c1ccc(-c2nc(NCc3cccnc3)c3ccccc3n2)cc1 ?
TRPML1 blocker: 6.7; Menin MLL FP FL: 2.3; ClpP mod: 0.6%; gsp agonist: inconclusive; TRPML1 ag: -0.4; gsp antag: -12.9%

How did O=C(NC1CCCc2ccccc21)c1ccccn1 (centres undefined) do in these assays?
TRPML1 blocker: 3.1; Menin MLL FP FL: 3.1; gsp agonist: -6.5%[15.4 µM]; TRPML1 ag: -0.9; gsp antag: 9.6%

What do the screens show for `CN1CCc2[nH]c3ccc(C(=O)NN)cc3c2C1`?
TRPML1 blocker: 22.8; Menin MLL FP FL: 2.4; ClpP mod: -3.2%; gsp agonist: 13.9%; TRPML1 ag: 2.8; gsp antag: -4.0%

Results for CCOc1ccc(C(=O)C(CN2CCOCC2)c2ccccc2)cc1 (centres undefined) ?
TRPML1 blocker: 23.4; Menin MLL FP FL: 0.4; ClpP mod: 0.3%; gsp agonist: -2.8%; TRPML1 ag: 0.8; gsp antag: -9.3%

What do the screens show for `COc1ccc(NC(=O)CN(C)C(=O)CSCc2ccc(C)cc2)cc1`?
TRPML1 blocker: 18.6; ClpP mod: 4.2%; gsp agonist: -34.5%[inhibitor]; TRPML1 ag: 0.2; gsp antag: -1.8%

Results for COc1ccc(-c2ccc3c(=O)cc(-c4ccsc4)oc3c2)cn1 ?
TRPML1 blocker: 14.7; ClpP mod: 3.6%; gsp agonist: 5.9%; TRPML1 ag: 1.7; gsp antag: -12.2%

How did CCOC(=O)C1=C(c2ccccc2)NC(SC)=C(C#N)C1c1ccco1 (centres undefined) do in these assays?
TRPML1 blocker: -13.0; Menin MLL FP FL: 2.3; ClpP mod: -2.4%; gsp agonist: 1.4%; TRPML1 ag: 0.4; gsp antag: -4.9%

What do the screens show for `Cc1cc(C)cc(NC(=O)Nc2nnc(N(C)C3CCCCC3)s2)c1`?
TRPML1 blocker: 10.9; ClpP mod: -0.3%; TRPML1 ag: -0.2

Results for Cc1c(NC(=O)Nc2cccc(F)c2)c(=O)n(-c2ccccc2)n1C ?
TRPML1 blocker: 6.1; ClpP mod: 0.9%; gsp agonist: -17.6%; TRPML1 ag: -0.2; gsp antag: 6.9%

How did CCCCOc1ccc(CN=C(N)N)cc1Cl do in these assays?
TRPML1 blocker: -4.3; Menin MLL FP FL: 3.4; ClpP mod: -1.1%; gsp agonist: 19.4%; TRPML1 ag: -0.5; gsp antag: 4.3%

What do the screens show for `O=C(c1ccccc1)c1cc2ccc(O)cc2oc1=O`?
TRPML1 blocker: 5.2; Menin MLL FP FL: 11.9; ClpP mod: -1.2%; gsp agonist: 25.0%; TRPML1 ag: -0.6; gsp antag: 10.6%

Results for O=C(NCc1ccccc1)c1ccc(-c2ccc(F)cc2)o1 ?
TRPML1 blocker: -2.5; Menin MLL FP FL: 3.5; ClpP mod: 28.2µM*; gsp agonist: -9.9%; TRPML1 ag: 1.0; gsp antag: -5.8%

How did NNC(=O)C1CCCN1S(=O)(=O)c1ccc(Cl)cc1 (centres undefined) do in these assays?
TRPML1 blocker: 8.4; Menin MLL FP FL: -1.2; gsp agonist: -2.7%[15.4 µM]; TRPML1 ag: 0.3; gsp antag: 14.6%

What do the screens show for `CCSc1nnc(NC(=O)c2cc(-c3ccccc3O)n[nH]2)s1`?
TRPML1 blocker: -5.3; Menin MLL FP FL: -1.2; gsp agonist: -3.4%[15.4 µM]; TRPML1 ag: 0.3; gsp antag: 2.8%

What do the screens show for `CC12CCC(=O)N1C(C(=O)Nc1cc(Cl)ccc1N1CCOCC1)CS2` (centres undefined)?
TRPML1 blocker: 27.2; Menin MLL FP FL: -3.9; ClpP mod: -1.7%; gsp agonist: -65.3%; TRPML1 ag: 1.6; gsp antag: 3.3%

How did O=C(O)c1c(C(=O)O)c(-c2ccc(Br)cc2)n2c1CSC2 do in these assays?
TRPML1 blocker: -2.1; Menin MLL FP FL: 5.8; ClpP mod: 4.7%; gsp agonist: 19.8%; TRPML1 ag: -0.6; gsp antag: -0.8%

What do the screens show for `CS(=O)CSc1nc2c(cc1C#N)CCCC2` (centres undefined)?
TRPML1 blocker: -7.6; Menin MLL FP FL: 1.5; ClpP mod: -5.2%; gsp agonist: 0.9%; TRPML1 ag: -0.2; gsp antag: 3.4%

Results for NS(=O)(=O)c1ccc(NC(=O)COC(=O)CNC(=O)C23CC4CC(CC(C4)C2)C3)cc1 ?
TRPML1 blocker: -29.5; Menin MLL FP FL: 0.4; ClpP mod: 2.3%; gsp agonist: -12.6%; TRPML1 ag: 1.2; gsp antag: 7.8%

How did Cc1ccc(-c2nnc(SCc3ccccc3C#N)o2)cc1 do in these assays?
TRPML1 blocker: -18.4; ClpP mod: -0.1%; TRPML1 ag: -1.4

Results for CC(CN1CCN(C)CC1)OC(=O)c1ccc(Cl)cc1Cl (centres undefined) ?
TRPML1 blocker: -3.8; Menin MLL FP FL: 5.3; ClpP mod: -1.9%; gsp agonist: 5.4%; TRPML1 ag: 0.3; gsp antag: 8.2%

Results for CCc1c(C(=O)Nc2nnc(C3CC3)s2)csc1C ?
TRPML1 blocker: 29.7; Menin MLL FP FL: 7.1; ClpP mod: -10.8%; gsp agonist: 0.1%; TRPML1 ag: 0.8; gsp antag: 11.8%

What do the screens show for `CCCCc1nnc(NC(=O)CSCc2cc(=O)n3ccsc3n2)s1`?
TRPML1 blocker: 8.3; ClpP mod: -7.4%; gsp agonist: inconclusive; TRPML1 ag: 0.7; gsp antag: -2.8%

How did COc1cccc(N2CN(CCc3ccccc3)CNC2=S)c1 do in these assays?
TRPML1 blocker: -11.0; Menin MLL FP FL: 3.1; gsp agonist: 3.5%[15.4 µM]; TRPML1 ag: 0.3; gsp antag: 0.3%

How did O=C(Cn1ccc(C(F)(F)F)n1)N/N=C/c1cccs1 do in these assays?
TRPML1 blocker: 12.1; Menin MLL FP FL: 7.9; ClpP mod: -3.7%; gsp agonist: 25.8%; TRPML1 ag: -1.5; gsp antag: -3.2%

Results for NNC(=O)c1ccc(CSc2nc3ccccc3[nH]2)cc1 ?
TRPML1 blocker: 6.6; Menin MLL FP FL: 2.5; gsp agonist: -6.3%[15.4 µM]; TRPML1 ag: 4.1

How did Nn1c(SCc2cccc(C(F)(F)F)c2)nnc1-c1ccco1 do in these assays?
TRPML1 blocker: -4.8; Menin MLL FP FL: 6.0; ClpP mod: -1.2%; gsp agonist: -22.8%; TRPML1 ag: -1.0; gsp antag: 1.5%

How did O=C(Cc1cccc(NC(=O)C2CCCN(C(=O)CCc3ccccc3)C2)c1)Nc1cccc(C(=O)N2CCOCC2)c1 (centres undefined) do in these assays?
TRPML1 blocker: -8.4; ClpP mod: -0.8%; TRPML1 ag: 1.0; gsp antag: 4.5%

How did COC(=O)c1ccc(CNC(=O)c2ccc(OC)c(S(=O)(=O)NC3CC3)c2)cc1 do in these assays?
TRPML1 blocker: 24.1; ClpP mod: 0.3%; gsp agonist: -40.3%; TRPML1 ag: -0.1

What do the screens show for `Cc1ccc(C)c(N2CCN(Cc3nnc(-c4ccccc4)o3)CC2)c1`?
TRPML1 blocker: 22.4; ClpP mod: -5.3%; TRPML1 ag: 0.2

Results for CC[n+]1c(C)n(-c2ccccc2)c2ccc(NC(C)=O)cc21 ?
TRPML1 blocker: 4.1; Menin MLL FP FL: -0.2; gsp agonist: inconclusive; TRPML1 ag: -0.2; gsp antag: -1.6%

How did Cc1oncc1C(=S)Nc1ccccc1 do in these assays?
TRPML1 blocker: -1.5; Menin MLL FP FL: -0.3; ClpP mod: -0.7%; gsp agonist: -31.4%[inhibitor]; TRPML1 ag: -0.3; gsp antag: -3.0%

Results for Cc1ccc2[nH]c(CSc3nnc(NC(=O)c4ccccc4C)s3)cc(=O)c2c1 ?
TRPML1 blocker: 0.3; ClpP mod: 1.8%; TRPML1 ag: 1.6

Results for CN(C)C(=O)COc1ccc2c(-c3ccccc3)cc(=O)oc2c1 ?
TRPML1 blocker: 12.9; Menin MLL FP FL: -0.2; ClpP mod: -6.7%; gsp agonist: -10.7%; TRPML1 ag: -0.4; gsp antag: -7.9%

How did COc1ccccc1N1CCN(C(c2ccc(F)cc2)c2nnnn2C(C)C)CC1 (centres undefined) do in these assays?
TRPML1 blocker: 14.4; Menin MLL FP FL: -2.4; ClpP mod: 17.8µM*; gsp agonist: inconclusive; TRPML1 ag: 3.6; gsp antag: -3.0%

How did Cc1cccc(OCCn2ccnc2)c1 do in these assays?
TRPML1 blocker: 0.5; Menin MLL FP FL: -1.8; ClpP mod: 1.9%; gsp agonist: -18.0%; TRPML1 ag: -0.2; gsp antag: -1.3%

How did CCOC(=O)Cc1csc(NC(=O)c2cccc(OC)c2)n1 do in these assays?
TRPML1 blocker: 34.1; Menin MLL FP FL: 3.2; ClpP mod: 0.1%; gsp agonist: -54.5%[inhibitor]; TRPML1 ag: -1.2; gsp antag: -10.8%

What do the screens show for `Cc1ccc(CCNC(=O)CCCn2nc(C)c3c(C)n(-c4ccc(C)cc4)nc3c2=O)cc1`?
TRPML1 blocker: 10.9&6.3; Menin MLL FP FL: 1.2; ClpP mod: -1.8%&-4.0%; gsp agonist: inconclusive; TRPML1 ag: -0.8&2.6; gsp antag: -22.1%

How did O=C(O)C1C2CCC(C2)C1C(=O)NCCc1ccccc1 (centres undefined) do in these assays?
TRPML1 blocker: -3.8; Menin MLL FP FL: 1.7; ClpP mod: 1.5%; gsp agonist: 1.0%; TRPML1 ag: 0.2; gsp antag: 1.1%

What do the screens show for `C=CCn1c(Oc2cccc(C)c2)nc2c1c(=O)n(C)c(=O)n2C`?
TRPML1 blocker: 10.2; Menin MLL FP FL: 4.0; ClpP mod: 0.2%; gsp agonist: 3.1%; TRPML1 ag: 4.8; gsp antag: -4.0%

How did c1cnc(NCCNc2ncccn2)nc1 do in these assays?
TRPML1 blocker: -6.1; Menin MLL FP FL: 1.5; ClpP mod: -4.2%; gsp agonist: -40.3%[inhibitor]; TRPML1 ag: -0.6; gsp antag: 3.0%

What do the screens show for `C=CC[C@H](CC(=O)N(CCO)Cc1ccccc1)C(=O)N[C@H](COC(=O)[C@@H](CC=C)CC(=O)OC(C)(C)C)Cc1c[nH]c2ccccc12`?
TRPML1 blocker: -1.5; ClpP mod: -5.0%; TRPML1 ag: 1.1; gsp antag: inconclusive

How did CC(=O)N1CN(S(=O)(=O)c2ccc(C)cc2)CC1C (centres undefined) do in these assays?
TRPML1 blocker: -7.0; Menin MLL FP FL: 3.9; ClpP mod: 0.9%; gsp agonist: -39.0%[inhibitor]; TRPML1 ag: -0.2; gsp antag: 2.8%

Results for O=C(NC1CCCCC1)c1cc(C2CC2)on1 ?
Menin MLL FP FL: 0.0; ClpP mod: -1.4%; gsp agonist: 20.8%; gsp antag: 5.5%

Results for O=[N+]([O-])c1cccc2ccc(/C=C/c3ccc(F)cc3)nc12 ?
TRPML1 blocker: -4.5; Menin MLL FP FL: 1.7; ClpP mod: -0.1%; gsp agonist: -56.4%; TRPML1 ag: 2.1; gsp antag: inconclusive
